Screens from PubChem BioAssay.
PABP FP inh: blocks human PABP binding to poly(A) RNA. inhibition, % at 35 µM. AID 2014. 290,000 compounds, 1% hits. P11940. fluorescence polarization;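 active = 50% or more with normal probe brightness, or confirmed in later tests; inconclusive = above 50% with abnormal brightness, or retests that disagree; inactive = below 50% or failed in later tests; about a fifth of its hits are not listed in these tables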;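 also: calls also rest on retests at 20 µM and on dose response follow-up; controls were probe without protein and protein plus probe with vehicle; some compounds called inactive have numbers as strong as hits; many hits fall short of the cut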
Target sequence (P11940 whole entry, looked up): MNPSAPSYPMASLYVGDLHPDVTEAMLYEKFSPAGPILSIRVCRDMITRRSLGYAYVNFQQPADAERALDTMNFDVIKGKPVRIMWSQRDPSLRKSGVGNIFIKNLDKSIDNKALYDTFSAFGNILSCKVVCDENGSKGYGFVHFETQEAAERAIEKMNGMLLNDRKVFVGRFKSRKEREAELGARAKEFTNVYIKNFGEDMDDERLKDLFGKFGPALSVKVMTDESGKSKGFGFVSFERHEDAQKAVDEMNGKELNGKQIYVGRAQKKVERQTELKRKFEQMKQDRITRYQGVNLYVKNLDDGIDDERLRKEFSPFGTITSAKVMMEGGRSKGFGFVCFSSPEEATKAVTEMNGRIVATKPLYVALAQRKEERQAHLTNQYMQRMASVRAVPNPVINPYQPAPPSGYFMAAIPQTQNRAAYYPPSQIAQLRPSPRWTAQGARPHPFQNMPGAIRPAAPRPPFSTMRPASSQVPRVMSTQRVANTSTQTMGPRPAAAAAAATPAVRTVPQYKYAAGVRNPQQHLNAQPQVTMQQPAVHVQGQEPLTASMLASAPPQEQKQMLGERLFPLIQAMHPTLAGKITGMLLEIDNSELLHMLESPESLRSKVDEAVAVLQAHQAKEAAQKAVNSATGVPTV
CSC inhib: blocks cancer stem cells; inhibition, % at 7.5 µM; AID 2717; cancer stem cell-like cells viability, luminescence; 300,000 compounds, 1.1% hits;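 active = mean at 75% or more and at least half the replicates too; inconclusive = mean and replicates disagree; tested in HMLE shEcad cells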;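 also: 0% = median of negative and 100% = median of positive control wells; the first replicate is given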
MT1-MMP act inh: MT1-MMP (human) activation inhibition; HT1080 RFP-PRO-GFP cells, GFP/RFP ratio fluorescence, overnight; percent of plate control window, DMSO zero; AID 651647; P50281; 360,000 compounds, 0.061% hits; GFP/RFP ratio change, % at 20 µM;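 active = GFP/RFP ratio change of at least 30% with cell ATP level not reduced by more than half and red fluorescence within 50% of control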; also: strong numbers were not always called active
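Read-out: GFP/RFP fluorescence ratio; Test system: RFP-PRO-GFP reporter HT1080 cells; Compound dosing: single-point 20 µM compound, 1% DMSO; Times: overnight compound exposure at 37 °C.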
Env fusion inh: HIV envelope-mediated fusion inhibition | HeLa-JRFL Env/CEM21 cell fusion, luciferase | inhibition, % at 12.3 µM | 360,000 compounds, 1.1% hits | AID 651610;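 active = mean replicate inhibition score of at least 50 and every replicate individually at or above 50; inconclusive = only one of the two criteria met; inactive = mean below 50 and not all replicates reaching 50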;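 also: 0% = plate neutral controls and 100% = maraviroc near 300 nM; one replicate is shown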
UUG fidelity: modulators of start codon recognition fidelity in yeast; S. cerevisiae UUG-firefly luciferase reporter, luminescence/redox ratio; activity score, % at 18.7 µM; 350,000 compounds, 0.13% hits;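 active = replicate mean at a twofold rise or more, about +100% in these data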;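 also: firefly luciferase made from a UUG start codon reports start codon fidelity; reporter light over untreated wells divided by growth signal over untreated wells; some hits fall short of that in this replicate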
eIF4H inh: inhibitors of RNA binding by human eIF4H | inhibition, % at 35 µM | Q15056 | AID 2012 | eIF4H fluorescence polarization binding assay | 290,000 compounds, 0.94% hits;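 active = 50% or more with normal probe brightness, or confirmed in later tests; inconclusive = above 50% with abnormal brightness, or retests that disagree; inactive = below 50% or failed in later tests; about a fifth of its hits are not listed in these tables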;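 also: calls also rest on retests at 20 µM and on dose response follow-up; 0% = protein and probe with vehicle and 100% = probe without protein; strong numbers were not always called active; many hits fall short of the cut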
Rce1 inh: yeast Ras-converting enzyme inhibition. 290,000 compounds, 0.27% hits. Q03530. yeast membranes, quenched prenylated peptide cleavage fluorescence. calls only. AID 2563;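 active = fall in fluorescence gain of 50% or more versus controls, with final raw signal at or below 3038400; inconclusive = same 50% fall but final raw signal above 3038400; inactive = fall in fluorescence gain under 50%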;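 also: plate controls were neutral control wells for no effect and wells lacking membranes for full effect; tested at 10 µM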
eIF4H inh retest: second read-out of eIF4H inh, no call of its own (marks repeat the call); inhibition, %; compound at 20 µM; confirmation average;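 mean of two retest wells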
PABP FP inh retest: second read-out of PABP FP inh, no call of its own (marks repeat the call); inhibition, %; compound at 20 µM; confirmation repeats;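 mean of two retest wells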
MT1-MMP act inh RFP: recorded beside MT1-MMP act inh, whose call it bears; RFP signal change, %; measured here: RFP expression control read;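 0 = vehicle wells; hits needed this value within 50% of zero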
* hit, by the source's call; i = inactive; u = inconclusive; x = no result given. Not all compounds are listed, so the mix of outcomes need not match the whole.

SMILES	PABP FP inh	CSC inhib	MT1-MMP act inh	MT1-MMP act inh RFP	Env fusion inh	UUG fidelity	eIF4H inh	Rce1 inh	others
OCCCNC(=S)Nc1ccc(Br)cc1Cl	-1	7	1	-4	-15	12	-4	i
CC(=O)Nc1ccc(NC(=O)C2CC(=O)N(c3cccc(C)c3C)C2)cc1 (stereo not drawn)	6	x	9	16	x	1	-10	i
CC(C)=CCN1CCN(Cc2cc3ccccc3[nH]2)CC1CCO (stereo not drawn)	-4	-8	1	2	6	-2	3	i
O=C1c2cccnc2C(=O)N1Cc1ccc(S(=O)(=O)NCc2ccco2)cc1	-1	-14	-1	3	-9	-18	-2	i
NC1=NC(c2ccccc2C(F)(F)F)N(c2ccc(F)c(Cl)c2)C(N)=N1 (stereo not drawn)	-1	-9	-7	-3	-89	-12	-6	i
COc1cccc(S(=O)(=O)Nc2ccc(C(=O)NCc3ccco3)cc2)c1	7	-9	5	1	-30	8	-7	i
O=C(Cc1ccccc1)NNC(=O)c1cnccn1	4	-6	-1	0	x	x	8	i
Cc1csc(NC(=O)CSc2[nH]c(=O)ncc2C)n1	x	4	-1	-1	-5	-9	x	i
Cc1ccc(C(=O)NC(=S)N(C)Cc2ccccc2)cc1	x	11	5	1	-18	x	x	i
CC1CCCC(C)N1C(=O)COC(=O)c1ccc(Br)c(S(=O)(=O)N2CCOCC2)c1 (stereo not drawn)	x	0	4	-2	-7	16	x	x
COc1cccc(C(=O)Cn2c(=N)n(C)c3ccccc32)c1	2	3	4	0	x	-11	-3	i
NCCCC[C@H](NC(=O)C1CCNCC1)c1nnc([C@@H](N)Cc2ccc(O)cc2)o1	28	-6	4	3	1	-5	-4	i
COc1ccccc1-n1cnnc1SCC(=O)Nc1ccccc1	3	-9	-2	1	-15	-22	9	i
O=C(Nc1ccc(N2C(=O)C3C4C=CC(C4)C3C2=O)cc1)Nc1nnc(C(F)(F)F)s1 (stereo not drawn)	0	15	-3	-11	3	-10	6	i
CN(CC(=O)Nc1ccc(F)cc1)C(=O)CSc1nc2ncc(Cl)cc2[nH]1	-8	-5	-7	-1	7	x	0	i
CCc1nc2c(OCc3ccc(Cl)cc3Cl)cccn2c1N(C)C(=O)C1CC1	x	x	-3	-8	-6	-20	x	x
Cc1ccc2c(c1)c1nnc(SCC(=O)N3CCN(c4ccc(F)cc4)CC3)nc1n2CC(=O)O	16	x	2	1	x	x	5	i
CC(=O)Oc1ccc(C2=NN(c3ccccc3)C(c3ccccc3)C2)cc1 (stereo not drawn)	-4	108*	1	-2	-2	-8	-1	i
CCc1cccc(C)c1N(C(=O)Cn1c(COC)nc2ccccc21)C(C)COC (stereo not drawn)	1	-15	-4	-2	-11	-21	-12	i
Nc1cc2c([N+](=O)[O-])cccc2o1	7	-19	-10	-1	x	-7	8	i
CCOC(=O)C1CCN(C(=O)CSc2ccccc2Cl)CC1	3	-8	5	7	-8	1	-9	i
Cc1ccc(C2Nc3ccccc3-c3nc4ccccc4n32)o1 (stereo not drawn)	2	36	-16	-10	x	9	-6	u
Cc1cccc(S(=O)(=O)c2c(C)cc(C)[nH]c2=O)c1	-5	16	5	6	-5	x	-7	i
c1ccc(CCn2c(C3CC3)nc3ccccc32)cc1	-1	0	0	-5	x	-12	-9	i
O=C(COc1ccc2ccc(=O)oc2c1)NC(Cc1ccc(Cl)cc1)C(=O)O (stereo not drawn)	-13	8	1	5	x	-3	2	i
CNc1nc(CCN2C(=O)c3ccccc3C2=O)cs1	-9	-17	4	4	-43	-17	1	i
CC(C)c1onc(C(=O)Nc2sc3c(c2C#N)CCC3)c1[N+](=O)[O-]	2	-11	-5	0	5	x	18	i
CCCc1c(C)c2cccc(C)c2[nH]c1=O	0	-6	-2	0	x	-20	2	i
CCN1CCN(C(=O)CSc2ccc(C)cc2)CC1	-13	-12	1	1	-10	-23	-4	i
COc1cccc(-n2c([S-])c(C(=O)Nc3ccc(C(F)(F)F)cc3)[n+]3ccccc23)c1	23	8	x	x	x	x	-10	i
COc1ccc(C(C)=O)cc1COC(=O)c1ccc2c(c1)OCCO2	x	-1	2	1	4	4	x	x
Cc1cccc(NC(=O)c2cnc3ccccn3c2=O)c1	0	x	-2	1	-27	-34	1	x
COc1ccc(CN(C(=O)c2ccco2)C2CCS(=O)(=O)C2)cc1 (stereo not drawn)	-5	-4	-7	0	4	-12	-10	i
CC1CCc2nc3ccc(S(=O)(=O)N4CCC(C(=O)N5CCCCC5)CC4)cc3c(C(=O)O)c2C1 (stereo not drawn)	22	-1	-3	3	5	-7	6	i
C#CCSc1nncn1C(=O)/C=C/c1ccccc1	-2	-1	x	x	x	x	-9	i
CCC1CCCCN1CCCNC(=O)c1c(O)nc2ccccn2c1=O (stereo not drawn)	22	-25	0	5	5	-5	5	i
CC1CN(CCN2CC(C)N(C=O)CC2C)C(C)CN1C=O (stereo not drawn)	x	x	-4	-4	7	0	x	x
CCOCCNC(=O)c1ccccc1C(=O)NCCOCC	-4	0	4	1	-61	-13	6	x
Cc1c(NC(=S)NC(=O)c2ccccc2Br)c(=O)n(-c2ccccc2)n1C	-1	-9	-1	0	4	-16	-5	i
CN(C)S(=O)(=O)c1ccc(S(=O)(=O)Nc2ccc3c(c2)oc2ccccc23)cc1	9	31	-3	-2	-15	-23	-5	i
COc1cccc(CNC(=O)CCNC(=O)C2CCN(S(=O)(=O)c3ccccc3)CC2)c1	3	0	-4	0	3	20	-11	i
Cc1c2ccccc2nc2c(F)c(NCCO)c(F)c(F)c12	3	6	-34	7	-130	-16	87	i	eIF4H inh retest=-11;PABP FP inh retest=9
COc1ccc(Cn2c(-c3ccc(OC)c(O)c3)nc3ccccc32)cc1O	-4	0	8	-5	-67	x	-11	i
COCCCNC(=O)CSc1nc2cc(S(=O)(=O)N3CCCCC3)ccc2o1	x	-10	3	0	-1	x	x	i
Cc1ccccc1Nc1nc(N)nc(COC(=O)c2ccco2)n1	x	5	1	2	-42	-28	x	x
Cc1n[nH]c(=O)nc1NC1CCCCC1	-5	-10	1	2	x	-18	-8	i
Cc1cc(NC(=O)CSc2n[nH]c(N)n2)no1	-15	-16	1	2	-7	-18	8	i
CSCCC(=O)Nc1nc(-c2ccccn2)cs1	-14	x	2	6	-5	x	12	x
COc1ccc(CNS(=O)(=O)NCc2ccc(OC)c(OC)c2)cc1	-1	-7	4	-4	24	-10	6	i
NC(=O)c1ccc(SCC(=O)OCC(=O)N2CCCC2=O)c([N+](=O)[O-])c1	x	-8	-1	3	0	-18	x	i
FC(F)Sc1ccc(NC(=S)NC(c2ccccc2)c2ccccc2)cc1	-5	9	-19	-24	19	x	-4	i
Cc1nc(Nc2nc3ccccc3o2)nc(C)c1C(=O)Nc1ccc(F)cc1	-7	-4	-1	2	-6	x	-5	i
O=C(Cn1nc(-c2ccccc2)ccc1=O)NCCN1CCN(c2cccc(Cl)c2)CC1	18	-1	-3	-7	22	-3	-5	i
CCCCCNC(=O)CC1Nc2c3ccccc3nc(=S)n2C1=O (stereo not drawn)	-1	-5	-5	-2	5	6	8	i
NC(=O)C1(N2CCCCC2)CCN(C(=O)CSc2nc3ccccc3s2)CC1	-4	-4	-4	-3	x	x	-6	i
CC(C)NC(=O)c1cc(C2CCCCN2S(=O)(=O)c2ccccc2)on1 (stereo not drawn)	x	x	3	4	0	-3	x	x
COc1cc(C=O)ccc1Oc1nc(Nc2ccc(F)cc2F)nc(N2CCOCC2)n1	-8	-5	-2	-1	15	x	2	i
CCOC(=O)C1CCCN(C(=O)Cn2ncc3c([nH]c4ccc(C)cc43)c2=O)C1 (stereo not drawn)	-2	14	2	0	21	2	8	i
O=S1(=O)CCN(OCc2ccc(F)cc2Cl)CC1	3	15	-5	-2	3	x	-6	i
COc1ccccc1-c1noc(-c2ccccc2)n1	1	2	-4	1	x	x	-2	i

Sorted by count of non-hydrogen atoms (smallest number first): some entries from above
SMILES	PABP FP inh	CSC inhib	MT1-MMP act inh	MT1-MMP act inh RFP	Env fusion inh	UUG fidelity	eIF4H inh	Rce1 inh	others
Cc1n[nH]c(=O)nc1NC1CCCCC1	-5	-10	1	2	x	-18	-8	i
Cc1cc(NC(=O)CSc2n[nH]c(N)n2)no1	-15	-16	1	2	-7	-18	8	i
CSCCC(=O)Nc1nc(-c2ccccn2)cs1	-14	x	2	6	-5	x	12	x
COc1ccccc1-c1noc(-c2ccccc2)n1	1	2	-4	1	x	x	-2	i
Cc1c2ccccc2nc2c(F)c(NCCO)c(F)c(F)c12	3	6	-34	7	-130	-16	87	i	eIF4H inh retest=-11;PABP FP inh retest=9
Cc1ccccc1Nc1nc(N)nc(COC(=O)c2ccco2)n1	x	5	1	2	-42	-28	x	x
COc1ccc(CNS(=O)(=O)NCc2ccc(OC)c(OC)c2)cc1	-1	-7	4	-4	24	-10	6	i
NC(=O)c1ccc(SCC(=O)OCC(=O)N2CCCC2=O)c([N+](=O)[O-])c1	x	-8	-1	3	0	-18	x	i
FC(F)Sc1ccc(NC(=S)NC(c2ccccc2)c2ccccc2)cc1	-5	9	-19	-24	19	x	-4	i
NC(=O)C1(N2CCCCC2)CCN(C(=O)CSc2nc3ccccc3s2)CC1	-4	-4	-4	-3	x	x	-6	i
CCOC(=O)C1CCCN(C(=O)Cn2ncc3c([nH]c4ccc(C)cc43)c2=O)C1 (stereo not drawn)	-2	14	2	0	21	2	8	i
COc1cccc(CNC(=O)CCNC(=O)C2CCN(S(=O)(=O)c3ccccc3)CC2)c1	3	0	-4	0	3	20	-11	i

Returning to the listing with the two entries that preceded the break.
SMILES	PABP FP inh	CSC inhib	MT1-MMP act inh	MT1-MMP act inh RFP	Env fusion inh	UUG fidelity	eIF4H inh	Rce1 inh	others
O=S1(=O)CCN(OCc2ccc(F)cc2Cl)CC1	3	15	-5	-2	3	x	-6	i
COc1ccccc1-c1noc(-c2ccccc2)n1	1	2	-4	1	x	x	-2	i
O=C(NC(=S)Nc1cccc2cc(O)ccc12)c1ccccc1Br	-5	37	1	-2	-3	-14	1	i
CC(=O)NC(Cc1ccccc1)C(=O)NC1CCN(C(=O)c2ccc([N+](=O)[O-])cc2)CC1 (stereo not drawn)	-4	-13	3	5	-93	x	0	i
Cc1ccc(N(C(=O)C(F)(F)F)C(C(=O)NC2CCCCC2)c2ccncc2)cc1C (stereo not drawn)	-3	-5	0	3	18	21	-3	i
Cc1occc1C(=O)N/N=C/c1ccc[nH]1	-2	1	-1	6	-12	-19	4	i
COc1ccc2c(c1OC)C(=O)OC2Nn1cncn1 (stereo not drawn)	26	-4	-1	3	-1	-14	-1	i
CC(=O)Nc1ccc2ccc3cccc4ccc1c2c34	-1	-3	2	0	x	-8	60*	i	eIF4H inh retest=89*;PABP FP inh retest=41
CCCCOc1ccc(C(=O)NN2CCOCC2)cc1	x	-4	2	3	8	x	x	i
C=CCSc1nnc2n(CCc3ccccc3)c(=O)c3c4c(sc3n12)COC(C)(C)C4	-1	-6	3	2	x	-9	2	i
N#C/C(=C/c1ccc(N2CCOCC2)o1)c1ccc(Br)cc1	44	31	-99	11	x	x	55	i	eIF4H inh retest=14;PABP FP inh retest=18
